A1 inh = blocks A1 activity; caspase activation, % (test concentration not listed); 0.51% of 21,000 active; MEF A1-2A-BIM cells, caspase-Glo luminescence, 3 h; percent of clofoctol signal, DMSO as zero;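 active = most replicate scores above 10, or exactly half above 10 with mean activity above 10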;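 also: effector caspase 3 and 7 activity cleaving a DEVD luciferin substrate; 50 nL library stock added to about 30 µL; numbers are from one replicate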
BJeLR viab HTS = lowers viability of BJeLR cells | BJeLR fibroblasts viability, CellTiterGlo ATP luminescence, 48 h; HRASV12, hTERT and SV40 LT/ST transformed | viability loss activity score, % (no concentration beside the values) | 0.64% of 30,000 active | AID 2275; in the data active = viability loss activity score above about 50%; about a fifth of its hits are not listed in these tables;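 also: higher score means fewer live cells and less ATP luminescence; stock transfer was 50 or 100 nL into about 30 µL; 0% = vehicle wells and 100% = a reference killing control; one replicate is shown; the record names a cut of 85%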
The depositor's hits bear a star; nt = not tested or not shown. The list is partial (hit frequency here may not be typical).

item | compound | A1 inh | BJeLR viab HTS
1 | COc1ccc(CC(=O)Nc2ccc3nc4n(c(=O)c3c2)CCCC4)cc1 | 0.3 | 4.4
2 | C[C@@H]1CN([C@@H](C)CO)C(=O)c2cc(NC(=O)CCN3CCOCC3)ccc2O[C@@H]1CN(C)C(=O)Nc1cccc2ccccc12 | -0.4 | 0.5
3 | C[C@H](CO)N1C[C@H](C)[C@H](CN(C)S(=O)(=O)c2ccccc2)Oc2c(NC(=O)Nc3ccccc3)cccc2C1=O | nt | 2.3
4 | C[C@@H]1CN([C@H](C)CO)C(=O)c2cccc(NC(=O)NC3CCCCC3)c2O[C@@H]1CN(C)C(=O)Nc1ccccc1 | nt | -1.9
5 | COc1cccc(NC(=O)CSc2nnc(N)s2)c1 | 0.8 | 6.0
6 | Cc1noc(C)c1NC(=O)N(C)C[C@@H]1Oc2ccc(NC(=O)C3CC3)cc2C(=O)N([C@@H](C)CO)C[C@H]1C | -0.1 | 22
7 | Cc1ccc2cccc(OCc3ccc(Br)cc3)c2n1 | nt | 1.4
8 | C[C@H]1CN([C@@H](C)CO)C(=O)c2cccc(NC(=O)C3CCOCC3)c2O[C@@H]1CN(C)CC1CCCCC1 | nt | -3.3
9 | C[C@@H]1CN([C@H](C)CO)C(=O)c2cc(NC(=O)CCC(F)(F)F)ccc2O[C@@H]1CN(C)S(=O)(=O)c1ccc(Cl)cc1 | 0.1 | -2.1
10 | COc1ccc(N=C(CCCN2C(=O)c3ccccc3C2=O)C2=C(O)CC(C)(C)CC2=O)cc1 | -0.3 | 4.9
11 | Cc1cc(C(=O)Nc2cccc3c2O[C@H](CN(C)Cc2ccncc2)[C@H](C)CN([C@@H](C)CO)C3=O)n(C)n1 | nt | 5.1
12 | Cc1noc(C)c1NC(=O)N(C)C[C@@H]1Oc2c(NC(=O)c3nc4ccccc4s3)cccc2C(=O)N([C@@H](C)CO)C[C@H]1C | nt | 1.8
13 | NCCCc1nc2cc3ccccc3cc2[nH]1 | 1.3 | -2.8
14 | COc1ccc(S(=O)(=O)N(C)C[C@H]2Oc3ccc(NC(=O)Nc4ccccc4)cc3C(=O)N([C@H](C)CO)C[C@@H]2C)cc1 | -0.3 | 0.2
15 | CC(CCc1ccccc1)NCC(O)c1ccc(O)c(C(N)=O)c1 (stereo not given) | -0.6 | -2.1
16 | CSc1nc2ccc(S(=O)(=O)N(C)C)cc2s1 | 0.3 | -5.0
17 | O=C(NN1C(=O)c2ccccc2C1=O)c1ccccc1 | -0.1 | 1.7
18 | Cc1cccc(-n2cnc3cc(C(=O)NCC4CCCO4)ccc32)c1 (stereo not given) | 1.0 | 0.1
19 | CC(C)(CC(=O)O)CC(=O)Nc1ccc(Cl)cc1Cl | 0.3 | 1.1
20 | C[C@H]1CN([C@@H](C)CO)C(=O)c2cc(NC(=O)CCCN(C)C)ccc2O[C@H]1CN(C)Cc1ccc2c(c1)OCO2 | 0.2 | -1.4
21 | CCCCC[C@H](O)/C=C/C1=C(C/C=C\CCCC(=O)O)C(=O)CC1 | -0.8 | 11
22 | C[C@H](CO)N1C[C@H](C)[C@@H](CN(C)S(=O)(=O)c2ccccc2)Oc2c(NC(=O)Nc3ccc4c(c3)OCO4)cccc2C1=O | nt | -0.9
23 | Cc1ccc(S(=O)(=O)/N=C(/Nc2nc(C)cc(C)n2)N2CCc3ccccc32)cc1 | nt | -4.1
24 | C[C@H]1CCC[C@@H](O)CC(=O)c2c(O)cc(O)cc2CC(=O)O1 | 0.3 | 0.2
25 | Clc1cc2c(c(C[n+]3ccccc3)c1)OCOC2 | 0.4 | 5.8
26 | C[C@@H]1CN([C@@H](C)CO)C(=O)c2cccc(NC(=O)Nc3ccc(F)cc3)c2O[C@H]1CN(C)S(=O)(=O)c1cn(C)cn1 | nt | -2.7
27 | C[C@@H]1CN([C@H](C)CO)C(=O)c2cc(NC(=O)CCCN(C)C)ccc2O[C@H]1CN(C)S(=O)(=O)c1ccccc1 | 0.3 | -1.6
28 | COC(=O)CN1C(=O)Nc2ccc(Cl)cc2C1c1ccccc1 (stereo not given) | nt | -0.5
29 | COC(=O)c1cc(-c2ccc(Cl)cc2)nc2ccccc12 | 0.5 | -9.5
30 | Cc1ccc2c(C(=O)CSc3ccccc3)c(C)[nH]c2c1 | 1.1 | -5.0
31 | C[C@@H]1CN([C@H](C)CO)C(=O)c2cc(NS(C)(=O)=O)ccc2O[C@H]1CN(C)Cc1ccc(Cl)c(Cl)c1 | -0.4 | -4.2
32 | CC(C)c1ccc(NC(=O)c2coc(=O)c3ccccc23)cc1 | -0.4 | -0.1
33 | Cc1cccc(CCNC(=S)Nc2ccc3nc4n(c(=O)c3c2)CCCCC4)c1 | nt | 5.3
34 | C[C@H]1CN([C@@H](C)CO)C(=O)c2cc(NS(=O)(=O)c3ccccc3)ccc2O[C@@H]1CN(C)S(=O)(=O)c1ccc(F)cc1 | 0.4 | 1.2
35 | Cc1noc(C)c1C(=O)n1cc2c(n1)-c1cc(F)ccc1SC2 | 0.2 | -2.7
36 | Cc1[nH]c(-c2ccc(F)cc2)cc1C(=O)NC1CCCCC1 | -0.7 | 6.9

Next section, starting with the last 2 of the part before.
item | compound | A1 inh | BJeLR viab HTS
35 | Cc1noc(C)c1C(=O)n1cc2c(n1)-c1cc(F)ccc1SC2 | 0.2 | -2.7
36 | Cc1[nH]c(-c2ccc(F)cc2)cc1C(=O)NC1CCCCC1 | -0.7 | 6.9
37 | CC(=O)OC1CCC(OC(C)=O)c2c1n([O-])c(C)c(C)[n+]2=O (stereo not given) | 0.4 | 5.2
38 | Cc1c(C)n(CC(O)CNCc2ccccc2)c2ccccc12 (stereo not given) | 2.1 | 4.6
39 | O=C1CC(CSc2nccc(-c3cccnc3)n2)=NN1c1ccc(Cl)cc1 | 0.3 | -2.3
40 | C[C@H]1CN([C@@H](C)CO)C(=O)c2cc(NC(=O)Nc3ccccc3)ccc2O[C@@H]1CN(C)S(C)(=O)=O | -0.4 | -0.1
41 | C[C@H](CO)N1C[C@H](C)[C@@H](CN(C)Cc2ccc(-c3ccccc3)cc2)Oc2ccc(NC(=O)CCCN(C)C)cc2C1=O | 0.1 | 0.9
42 | CN1CCN(CCOc2ccccc2)CC1 | -0.7 | 2.0
43 | O=C(CN1C(=O)c2ccccc2S1(=O)=O)c1ccc2c(c1)OCCCO2 | -5.5 | 5.2
44 | C[C@@H]1CN([C@H](C)CO)C(=O)c2cc(NS(=O)(=O)c3ccccc3)ccc2O[C@H]1CN(C)Cc1ccncc1 | 1.0 | -6.1
45 | C[C@H](CO)N1C[C@H](C)[C@H](CN(C)C(=O)Nc2ccc(C(F)(F)F)cc2)Oc2c(NS(C)(=O)=O)cccc2C1=O | nt | 0.6
46 | COc1ccc(NC(=O)Nc2cccc3c2O[C@@H](CN(C)Cc2ccc(Oc4ccccc4)cc2)[C@@H](C)CN([C@H](C)CO)C3=O)cc1 | nt | -1.6
47 | O=C1CCCN1CCNC(=S)Nc1ccccc1 | -0.3 | 0.8
48 | C[C@H]1CN([C@@H](C)CO)C(=O)c2cccc(NS(=O)(=O)c3cn(C)cn3)c2O[C@H]1CN(C)S(C)(=O)=O | nt | 1.2

Of the compounds above, these contain a Cl atom:
item | compound | A1 inh | BJeLR viab HTS
9 | C[C@@H]1CN([C@H](C)CO)C(=O)c2cc(NC(=O)CCC(F)(F)F)ccc2O[C@@H]1CN(C)S(=O)(=O)c1ccc(Cl)cc1 | 0.1 | -2.1
19 | CC(C)(CC(=O)O)CC(=O)Nc1ccc(Cl)cc1Cl | 0.3 | 1.1
25 | Clc1cc2c(c(C[n+]3ccccc3)c1)OCOC2 | 0.4 | 5.8
28 | COC(=O)CN1C(=O)Nc2ccc(Cl)cc2C1c1ccccc1 (stereo not given) | nt | -0.5
29 | COC(=O)c1cc(-c2ccc(Cl)cc2)nc2ccccc12 | 0.5 | -9.5
31 | C[C@@H]1CN([C@H](C)CO)C(=O)c2cc(NS(C)(=O)=O)ccc2O[C@H]1CN(C)Cc1ccc(Cl)c(Cl)c1 | -0.4 | -4.2
39 | O=C1CC(CSc2nccc(-c3cccnc3)n2)=NN1c1ccc(Cl)cc1 | 0.3 | -2.3

Further structures follow.
item | compound | A1 inh | BJeLR viab HTS
49 | S=C1C=C(N2CCCCC2)CC(c2ccc(Cl)cc2)S1 (stereo not given) | -0.8 | 0.6
50 | CC(NCc1ccc(F)cc1)C12CC3CC(CC(C3)C1)C2 (stereo not given) | nt | 9.2
51 | COc1ccc(NC(=O)N(C)C[C@H]2Oc3c(NS(=O)(=O)c4ccc(OC)cc4)cccc3C(=O)N([C@H](C)CO)C[C@H]2C)cc1 | nt | 0.5
52 | C[C@H](CO)N1C[C@H](C)[C@H](CN(C)Cc2ccc(C(F)(F)F)cc2)Oc2ccc(NC(=O)Nc3ccc(C(F)(F)F)cc3)cc2C1=O | -0.5 | -7.6
53 | C[C@@H]1CN([C@H](C)CO)C(=O)c2cc(NC(=O)CCCCCC(=O)Nc3ccccc3N)ccc2O[C@H]1CN(C)C(=O)Nc1ccc(F)cc1 | nt | -1.7
54 | COc1ccc(C=Nc2ccc(C(C)(C)C)cc2)cc1 | -0.2 | -0.4
55 | C[C@H]1CN([C@@H](C)CO)C(=O)c2cc(NC(=O)Nc3ccccc3)ccc2O[C@H]1CN(C)C(=O)Nc1ccc(C(F)(F)F)cc1 | 0.0 | -1.2
56 | C=CCn1c(C)c2cc(Cl)c(Cl)cc2[n+]1C | 0.3 | -4.7
57 | C[C@@H]1CN([C@H](C)CO)C(=O)c2cc(NC(=O)Cn3cnnn3)ccc2O[C@@H]1CN(C)C(=O)Nc1ccc2c(c1)OCO2 | -0.6 | 7.0
58 | Cc1cccn2cc(CNC(=O)C(C)(C)C)nc12 | 0.3 | -0.9
59 | Cc1noc(C)c1S(=O)(=O)Nc1cccc2c1O[C@@H](CN(C)C(=O)Nc1ccccc1)[C@@H](C)CN([C@H](C)CO)C2=O | nt | -8.3
60 | C[C@H]1CN([C@@H](C)CO)C(=O)c2cc(NC(=O)C3CCCCC3)ccc2O[C@@H]1CN(C)C | 1.1 | 1.6

5 entries from above, ordered by their value in A1 inh, smallest number first.
| no. | SMILES | A1 inh |
| --- | --- | --- |
| 32 | CC(C)c1ccc(NC(=O)c2coc(=O)c3ccccc23)cc1 | -0.4 |
| 17 | O=C(NN1C(=O)c2ccccc2C1=O)c1ccccc1 | -0.1 |
| 20 | C[C@H]1CN([C@@H](C)CO)C(=O)c2cc(NC(=O)CCCN(C)C)ccc2O[C@H]1CN(C)Cc1ccc2c(c1)OCO2 | 0.2 |
| 39 | O=C1CC(CSc2nccc(-c3cccnc3)n2)=NN1c1ccc(Cl)cc1 | 0.3 |
| 44 | C[C@@H]1CN([C@H](C)CO)C(=O)c2cc(NS(=O)(=O)c3ccccc3)ccc2O[C@H]1CN(C)Cc1ccncc1 | 1.0 |

(list continues)
item | compound | A1 inh | BJeLR viab HTS
61 | C[C@@H]1CN([C@H](C)CO)C(=O)c2cc(NC(=O)CCN3CCOCC3)ccc2O[C@H]1CN(C)S(C)(=O)=O | -0.1 | -1.8
62 | Clc1ccc(C=Nc2ccc3c(c2)OCCOCCOCCO3)c(Cl)c1 | 1.9 | -1.9
63 | CC1CC[C@]2(C(=O)OC3OC(COC4OC(CO)C(O)C(O)C4O)C(O)C(O)C3O)CC[C@]3(C(=O)O)C(=CCC4[C@@]5(C)CC[C@H](OC6OC(C)C(O)C(O)C6O)C(C)(C)C5CC[C@]43C)C2C1C (stereo not given in full) | 0.0 | -0.2
64 | Cc1noc(C)c1S(=O)(=O)Nc1ccc2c(c1)C(=O)N([C@H](C)CO)C[C@H](C)[C@@H](CN(C)C(=O)NC(C)C)O2 | 1.1 | -0.7
65 | C[C@@H]1CN([C@H](C)CO)C(=O)c2cccc(NC(=O)Nc3ccc(F)cc3)c2O[C@H]1CN(C)S(=O)(=O)c1ccc(Cl)cc1 | nt | 1.3
66 | COc1ccc(S(=O)(=O)Nc2cccc3c2O[C@@H](CN(C)Cc2ccc4c(c2)OCO4)[C@H](C)CN([C@@H](C)CO)C3=O)cc1 | nt | 1.8
67 | Cc1cc(C)c2oc(-c3cc(NC(=O)COc4ccccc4C)ccc3Cl)nc2c1 | nt | 3.0
68 | C[C@H]1CN([C@@H](C)CO)C(=O)c2cc(NC(=O)Nc3ccc4c(c3)OCO4)ccc2O[C@@H]1CN(C)Cc1ccc(Cl)c(Cl)c1 | -0.2 | 2.2
69 | Cc1ccc(-c2nc(SC3CC(=O)N(c4ccccc4)C3=O)n[nH]2)cc1 (stereo not given) | 0.1 | -4.5
70 | CCNS(=O)(=O)c1cc(-c2nnc(OC)c3ccccc23)ccc1C | -0.3 | 1.6
71 | COC(=O)c1c(NC(=S)NC(=O)c2ccccc2)sc2c1CCCC2 | -1.0 | -1.9
72 | O=c1ccnc(SCc2ccc(Cl)cc2)[nH]1 | -2.5 | 5.5
73 | COc1ccc(CN2CC(C(=O)NCCCN3CCC(C)CC3)CC2=O)cc1 (stereo not given) | 1.0 | 1.7
74 | CCOC(=O)c1cc2c(c(CSc3ccc(C(F)(F)F)cn3)c1)OCOC2 | 0.5 | 4.8
75 | COc1ccccc1NC(=O)[C@H](Cc1ccccc1)N1Cc2ccccc2C1=O | nt | -2.2
76 | CN(C)C=Nc1ncc2c([nH]c3ccccc32)c1C#N | -0.2 | -14
77 | Cc1ccc(S(=O)(=O)N(C)C[C@H]2Oc3ccc(NS(C)(=O)=O)cc3C(=O)N([C@@H](C)CO)C[C@@H]2C)cc1 | -0.7 | -5.8
